Mtb growth = Mycobacterium tuberculosis H37Rv growth inhibition, cell based, confirmatory dose response (AID 1949); most inactive calls were filed without a number and no value below 0 was filed; 1.6% of 100,000 active; inhibition, % at 10 µg/mL, or IC50 in µg/mL where a hit was titrated;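 active = confirmed in a dose series; inconclusive = about 50% or more but not retested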;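 note: bacteria grown 7 days with compound before Alamar blue readout; 0% = untreated bacteria and 100% = reference antibiotic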
Starred values were filed as active, the others as inactive; i = inactive; ? = inconclusive. This is a subset, so the mix of outcomes need not match the whole.

SMILES	Mtb growth
Cc1cccc(NC(=O)CSc2nnc3c(n2)[nH]c2ccccc23)c1C	i
O=C(c1cccc(S(=O)(=O)N2CCOCC2)c1)N1CCN(c2cccc(Cl)c2)CC1	i
O=C(NCCCCCO)C(=O)NCC1CCCO1 (stereo not drawn)	2%
Cn1c(SCC(=O)N2c3ccccc3Sc3ccccc32)nnc1-c1ccco1	i
Cc1ccc2c(c1)sc1nc(=O)n(-c3cccc(Cl)c3)c(=O)n12	i
Cc1ccc(N(CC(=O)Nc2ccccc2C(=O)NCCc2ccccc2)S(C)(=O)=O)cc1	i
COc1ccc(-c2csc3ncn(Cc4ccccc4F)c(=O)c23)cc1	i
COC(=O)C1=CN(Cc2ccc(OC)cc2)C=C(C(=O)OC)C1c1ccc(OC)c(O)c1	i
C=CCNC(=O)CN(Cc1ccccc1F)S(=O)(=O)c1ccc(C)cc1	i
Cc1ccc(SCCC(=O)NCc2ccccc2)cc1	i
CCC(=O)Oc1cccc(C(=O)Nc2ccccc2-c2ccccc2)c1	7%
COCc1cc(C)nc(N2CCN(c3ccccc3)CC2)c1C#N	i
Cc1ccc(-c2csc3ncnc(Nc4ccc(F)cc4)c23)cc1	i
CCCC(=O)Nc1ccc(Cl)c(NC(=O)c2cc(Cl)cc(Cl)c2OC)c1	i
COCC(=O)Nc1nc(-c2ccc(-c3ccccc3)cc2)cs1	4%
C=CCN1C(=O)c2ccccc2S1(=O)=O	i
Cc1cc(CO)c(C)n1-c1ccc(F)cc1	i
COCCn1c(C)cc(/C=C(/C#N)c2nc3ccc(C)cc3[nH]2)c1C	0%
CCn1c(SCC(=O)Nc2ccccc2F)nnc1C(C)NC(=O)c1ccccc1Br (stereo not drawn)	i
O=C(COc1ccc(Cl)cc1Br)Nc1ccc2c(c1)OCCO2	i
Cc1nnc(NC(=O)c2cc(S(=O)(=O)N3CCCCC3)ccc2Cl)s1	i
CCOP(=O)(/C(C#N)=C(\O)Cc1ccccc1)c1ccccc1 (stereo not drawn)	i
CC(C)(C)NS(=O)(=O)c1ccc(NC(=O)Nc2ccc(Cl)cc2)cc1	i
O=C(c1cccc2ccccc12)N1CCN(c2ccc([N+](=O)[O-])c(NCc3ccco3)c2)CC1	i
COc1cccc(C(=O)NC(=S)Nc2ccc(C(=O)O)c(Cl)c2)c1	i
c1ccc(-c2ccc(-c3nc4ccccc4o3)cc2)cc1	i
Cc1cc(OCCN2CCCCCC2)ccc1[N+](=O)[O-]	1%
Cc1ccc(SC(C)C(=O)Nc2cccc(Cl)c2)cc1 (stereo not drawn)	i
COc1cc(CO)c(Br)cc1OCCO	i
CCCC(=O)n1nc(-c2cccnc2)nc1N	i
Cc1ccc(C(=O)Nc2ccc(C(F)(F)F)cc2)s1	4.7µg/mL*
COC(=O)c1ccc(COC(=O)c2ccc(F)cc2)cc1	i
O=c1cc(-c2ccccc2)nc(SCCOc2ccc3c(c2)OCO3)[nH]1	i
CCC(=O)Oc1ccc2c(C)c(C)c(=O)oc2c1	24%
O=C(NCc1ccco1)C(=S)N1CCCCC1	i
C=CCn1c(COc2ccc(C(C)C)cc2)nnc1SCC(=O)Nc1nc(C)cs1	1%
COc1ccccc1OCc1ccc(C(=O)Nc2cc(C)cc(C)c2)cc1	i
Cc1ccc(-n2c(SCC(=O)NCc3ccccc3)nnc2-c2ccc(Cl)cc2)cc1C	i
CC(=O)Oc1ccc(NC(=O)c2ccco2)cc1	i
Cc1nnc(NC(=O)c2cc(-c3ccccc3)nc3ccccc23)s1	i
COc1cccc(NC(=O)c2ccc(-c3ccccc3Cl)o2)c1	?
COc1ccc(NC(=S)NCc2ccncc2)c(OC)c1	i
COc1ccc(C(=O)NCc2c(C)oc(C)c2C(=O)O)cc1	i
COc1ccc(C(=O)CSc2nnc(-c3ccncc3)n2-c2ccc(Cl)cc2)cc1	i
Cn1c(=O)n(C)c2cc(S(=O)(=O)O)ccc21	i

Three records drawn at random from those above, as already listed:
SMILES	Mtb growth
Cc1ccc(SC(C)C(=O)Nc2cccc(Cl)c2)cc1 (stereo not drawn)	i
O=c1cc(-c2ccccc2)nc(SCCOc2ccc3c(c2)OCO3)[nH]1	i
CCC(=O)Oc1cccc(C(=O)Nc2ccccc2-c2ccccc2)c1	7%

(next part)
SMILES	Mtb growth
CC(=O)c1ccc(NC(=O)CSc2nnc3c(n2)[nH]c2ccccc23)cc1	i
O=C(CSc1nc2ccccc2n1Cc1ccccc1)c1cc2ccccc2oc1=O	3%
CC(Oc1ccc(Cl)cc1Cl)C(=O)Nc1ccc(S(=O)(=O)Nc2ncccn2)cc1 (stereo not drawn)	0%
COc1ccccc1C(=O)Oc1ccc2c(=O)c(-c3ccccc3OC)coc2c1	i
O=C(c1ccc(Cl)cc1)c1cc2cc(Br)ccc2o1	0%
Cc1ccc(SC(C)C(=O)NCC2CCCO2)cc1 (stereo not drawn)	i
O=C(COC(=O)c1cc2ccccc2oc1=O)c1ccc(Cl)cc1	i
COc1cccc(C2C(C(=O)Nc3ccccc3)=C(C)N=c3s/c(=C\c4ccncc4)c(=O)n32)c1 (stereo not drawn)	i
Clc1cccc(N2CCN(Cc3nc(-c4ccccc4)no3)CC2)c1	9%
C=CCNC(=O)c1ccccc1NC(=O)c1ccc(-c2ccccc2)cc1	i
O=C(CSc1nc(-c2ccco2)cc(C(F)(F)F)n1)N1CCSCC1	i
Cc1ccccc1OCc1nc2c3cnn(C)c3ncn2n1	i
Cc1nn(S(=O)(=O)c2ccc(F)cc2)c(C)c1Sc1ccc([N+](=O)[O-])cc1	i
COc1ccccc1CCNC(=S)Nc1cccc(C(C)=O)c1	i
Cc1oc2c(c(C)cc3oc(=O)cc(-c4ccccc4)c32)c1C	1%
O=C(CN1CCN(c2ccccc2F)CC1)Nc1nc(-c2ccccc2)cs1	i
COc1ccc(S(=O)(=O)N(CC(=O)O)c2cccc(Cl)c2)cc1	i
O=C(CN(c1ccc(Cl)cc1Cl)S(=O)(=O)c1ccccc1)Nc1ccccc1F	i
CCN(CC)S(=O)(=O)c1cc(C(=O)Nc2ccccc2F)ccc1OC	i
O=C(CSCc1ccccc1Cl)NNC(=O)c1ccccc1	i
CCOC(=O)c1ccc(NC(=O)Cn2cc(C(=O)C3CC3)c3ccccc32)cc1	i
Cc1ccc(S(=O)(=O)N2CCN(c3ccccc3)CC2)c(C)c1C	5%
O=C(Nc1nonc1NC(=O)C1CCCCC1)C1CCCCC1	i
CC(=O)c1ccc(NC(=O)Nc2ncccc2C)cc1	i
CNC(=O)CN(c1ccccc1OC)S(=O)(=O)c1ccc(OC)cc1	i
COc1ccc(OC)c(NC(=O)c2cccc(NC(=O)c3ccccc3)c2)c1	4%
Nc1cc(=O)nc(SCc2ccccc2)n1-c1ccccc1Cl	i
CCOC(=O)c1ccc(NC(=O)c2ccccc2NC(=O)c2ccc(C)cc2)cc1	i
O=C(CN(CCc1ccccc1)S(=O)(=O)c1ccc(Cl)cc1)NCC1CCCO1 (stereo not drawn)	i
Cc1ccccc1OCc1nnc(SCC(=O)c2ccc(Cl)cc2)n1C	i
COC(=O)c1ccc(C)c(NC(=S)Nc2ccc(F)c(Cl)c2)c1	37%
COc1ccc(C(=O)Nc2ccc(-c3nc4cc(Cl)cc(Cl)c4o3)cc2)cc1[N+](=O)[O-]	3%
Cc1cc(C(=O)N2CCN(c3ncccn3)CC2)c(C)o1	i
C#CCSc1nnc(-c2ccc([N+](=O)[O-])cc2)o1	<0.1µg/mL*
CC(C)(C)c1ccc(S(=O)(=O)c2ccccc2)cc1	i
O=C1CC(c2ccc(Cl)cc2)C2=C(CC(c3cccs3)CC2=O)N1 (stereo not drawn)	i
COc1ccc(CC(=O)NC(c2ccccc2)C(C)C)cc1 (stereo not drawn)	2%
CC(=O)Nc1cccc(NC(=O)c2cc(-c3ccccn3)nc3ccc(Cl)cc23)c1	i
CCCCn1cnc2sc3c(c2c1=O)CCC(C)C3 (stereo not drawn)	2%
Cc1ccc2nc(-c3cc4ccccc4oc3=O)[nH]c2c1	?
Nc1nnc(-c2ccc(F)cc2Cl)s1	1%
O=c1oc2cc(S(=O)(=O)NCCCO)ccc2c2ccc(S(=O)(=O)NCCCO)cc12	i
CC(=O)Nc1ccc(S(=O)(=O)Nc2ccc(Oc3ccc(C)cc3)cc2)cc1	i
Nc1ccc2oc(-c3ccc(Cl)c(Cl)c3)nc2c1	i
Cn1cnnc1SCC(=O)c1ccc2c(c1)OCCO2	i
COc1ccc(Br)cc1/C=C1/SC(N2CCCCC2)=NC1=O	i
Cc1cc(-c2ccccc2)nc(SCC(=O)NC2CC3CCC2C3)n1 (stereo not drawn)	i
COc1cccc(-c2nn(-c3ccccc3)cc2C(=O)Nc2nccs2)c1	?
COc1ccc(NC(=O)c2ccc(SC)cc2OC)c(OC)c1	i
CCCOc1ccc(/C=C2\SC(N3CCN(c4ccccc4C)CC3)=NC2=O)cc1	i
COC(=O)c1cccc(NS(=O)(=O)c2cccs2)c1C	i
Cc1cc(C)c2oc(-c3cccc(NC(=O)c4ccco4)c3)nc2c1	i
CCC(C(=O)N1CC2(C)CC1CC(C)(C)C2)N1C(=O)c2ccccc2C1=O (stereo not drawn)	i
Cc1ccc(C2CC(=O)C3=C(C2)NC(=O)CC3c2ccccc2OCc2ccccc2)cc1 (stereo not drawn)	i
CC(C)c1ccccc1NS(=O)(=O)c1ccc(Br)s1	2%
Cc1ccc(C(=O)O)cc1-c1ccc(C=O)o1	i
O=Cc1ccccc1OCCc1ccccc1	i
Cc1ccc(-c2nnc(-c3ccc(NC(=O)Cc4cccs4)cc3)o2)cc1	i
CC(Sc1nnc(-c2ccc(C(C)(C)C)cc2)o1)C(=O)Nc1nccs1 (stereo not drawn)	i
COCCCNC(=S)NNC(=O)c1ccc(-c2ccccc2)cc1	i

Sorted by count of non-hydrogen atoms (descending): part of the list above.
SMILES	Mtb growth
Cc1ccc(C2CC(=O)C3=C(C2)NC(=O)CC3c2ccccc2OCc2ccccc2)cc1 (stereo not drawn)	i
O=c1oc2cc(S(=O)(=O)NCCCO)ccc2c2ccc(S(=O)(=O)NCCCO)cc12	i
CCCOc1ccc(/C=C2\SC(N3CCN(c4ccccc4C)CC3)=NC2=O)cc1	i
CC(=O)Nc1ccc(S(=O)(=O)Nc2ccc(Oc3ccc(C)cc3)cc2)cc1	i
COc1cccc(-c2nn(-c3ccccc3)cc2C(=O)Nc2nccs2)c1	?
CC(Sc1nnc(-c2ccc(C(C)(C)C)cc2)o1)C(=O)Nc1nccs1 (stereo not drawn)	i
Cc1cc(C)c2oc(-c3cccc(NC(=O)c4ccco4)c3)nc2c1	i
COCCCNC(=S)NNC(=O)c1ccc(-c2ccccc2)cc1	i
COc1ccc(NC(=O)c2ccc(SC)cc2OC)c(OC)c1	i
COc1ccc(Br)cc1/C=C1/SC(N2CCCCC2)=NC1=O	i
Cc1ccc2nc(-c3cc4ccccc4oc3=O)[nH]c2c1	?
COC(=O)c1cccc(NS(=O)(=O)c2cccs2)c1C	i
CC(C)c1ccccc1NS(=O)(=O)c1ccc(Br)s1	2%
Nc1ccc2oc(-c3ccc(Cl)c(Cl)c3)nc2c1	i
O=Cc1ccccc1OCCc1ccccc1	i
Nc1nnc(-c2ccc(F)cc2Cl)s1	1%

Carrying on.
SMILES	Mtb growth
O=C(Nc1ccc(Cl)c(Cl)c1)C(=O)N1CCCCC1	i
CCC(C)NC(=O)c1c(-c2ccccc2)noc1C (stereo not drawn)	i
NC(=O)c1c(NC(=O)CSc2ccc(Cl)cc2)sc2c1CCC2	i
C=CCN(CC=C)C(=S)Nc1ccc([N+](=O)[O-])cc1OC	i
OCc1ccc(OCc2ccc(I)cc2)cc1	1%
Cc1onc(-c2c(F)cccc2Cl)c1C(=O)NC1C2CC3CC(C2)CC1C3 (stereo not drawn)	1%
COC(=O)C1CCN(C2CC(=O)N(c3cccc(C(F)(F)F)c3)C2=O)CC1 (stereo not drawn)	i
COC(=O)c1c(NC(=O)c2cccc(Cn3nc(C)c(Cl)c3C)c2)sc2c1CCC2	0%
O=C(O)c1cc2cc(Cc3ccccc3Cl)ccc2oc1=O	i
COc1ccc(CCNC(=S)N2CCN(c3ccc(Cl)c(Cl)c3)CC2)cc1OC	6.5µg/mL*
CCc1cc(=O)oc2c(C)c(OCC(=O)c3ccc(Cl)c(Cl)c3)ccc12	i
CCc1nnc(NC(=O)CSc2ncn(-c3ccccc3)n2)s1	i
O=S(=O)(Nc1ncccn1)c1ccc(NC(=S)NCc2cn(-c3ccccc3)nc2-c2ccccc2)cc1	i
COc1ccc(S(=O)(=O)N(Cc2ccccc2)c2ccccc2C(=O)Nc2cccc(F)c2)cc1	i
CC1CCN(c2ccc([N+](=O)[O-])cc2S(=O)(=O)N2CC(C)OC(C)C2)CC1 (stereo not drawn)	i
CC(C)c1ccccc1OCCNS(C)(=O)=O	i
Cc1ccc(C(=O)O)cc1NC(=O)c1ccc2c(c1)C(=O)N(C(C)(C)C)C2=O	3%
Cc1ccc(NC(=S)Nc2ccc(S(N)(=O)=O)cc2)c(OC(F)F)c1	i
CCc1ccccc1N(CC(=O)Nc1ccc(C(=O)OC)cc1)S(C)(=O)=O	15%
O=C(COc1ccc2ccccc2c1Br)Nc1ncn[nH]1	i
O=C(Nc1ccc(Cl)cn1)c1ccc(COCC(F)(F)C(F)F)o1	i
COc1cc2nc(C)sc2cc1SC	i
CCOC(=O)c1c(-c2ccccc2)csc1NC(=O)c1cccc(OC(C)=O)c1	3%
O=C(Nc1ccncc1)c1cc(-c2ccc(Cl)s2)nc2ccccc12	i
CCOC(=O)C(C(=O)N1CCOCC1)C1CCCCC1 (stereo not drawn)	0%
C=CCc1cccc(C)c1OCCCN1CCN(C)CC1	i
Cc1c(Cc2ccccc2)sc(NC(=O)COc2ccc([N+](=O)[O-])cc2)c1C(N)=O	i
O=C(Nc1ccc2c(c1)OCCO2)c1ccc(C(=O)Nc2ccc3c(c2)OCCO3)nc1	i
CC(C)Oc1ccccc1NC(=O)c1cccc(C(=O)Nc2ccccc2OC(C)C)c1	5%
CCCc1nc2c(nnn2Cc2ccccc2)c(=O)[nH]1	i
CCn1c(SCC(=O)Nc2cccc(C)c2C)nnc1-c1ccc(Cl)c(Cl)c1	i
O=C1c2cccc3cccc(c23)C(=O)N1CCCSc1nnnn1-c1ccccc1	i
CC(C)(C)c1ccc(C(=O)N2CCC(C(=O)Nc3ccc4c(c3)OCO4)CC2)cc1	27%

Screening results: PubChem, Southern Research Institute
